Source: PubChem (several laboratories)
RN4220 kill: growth inhibition of S. aureus RN4220, primary screen, OD600. 330,000 compounds, 0.33% hits. 16 h. inhibition, % (no concentration beside the values);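 active = z-score of -3 or lower and OD600 up to 0.18 on both plates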;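 note: plate controls were untreated cells for no effect and reference antibiotic for full effect; stock transfer was 100 nL into about 80 µL; one replicate is shown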
PrP UTR inh: inhibition of PrP 5' UTR reporter expression. cell-based PrP 5' UTR mRNA reporter, plate reader. inhibition, % (no concentration beside the values). 340,000 compounds, 0.35% hits;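 active = every replicate at 50% or more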;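 note: 0 = median of the neutral control wells; tested in H4 reporter cells; numbers are from one replicate; inactives centre near -14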
Sa ugtP lethal: growth inhibition of ugtP-null S. aureus, primary screen, RN4220 ugtP deletion, OD600; 16 h; some inactives read as strong as hits; growth inhibition, % (no concentration beside the values); 330,000 compounds, 0.54% hits; AID 1259309, 2017;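 active = z-score under -3 and OD600 up to 0.15 on both plates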;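 note: plate controls were untreated wells for no effect and antibiotic for full effect; wells of about 80 µL received 100 nL stock; the first replicate is given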
Mtb hypoxia rep: PubChem AID 1159583 | fluorescence inhibition, % (no concentration beside the values) | 300,000 compounds, 0.1% hits | M. tuberculosis hypoxia-regulated fluorescent reporter, fluorescence;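 active = 35 to 45% if threefold the growth effect, above 45% if 1.5-fold the growth effect; inactive = the rest, general growth blockers included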;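 note: wells of about 50 µL received 100 nL stock; 0% = vehicle wells and 100% = reference inhibitor wells; whole bacteria with a GFP reporter of the hypoxia response; strong numbers were not always called active; many hits fall short of the cut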
BJeLR lethal: MLPCN primary cell-based screen for lethality selective to Ras in HRASV12 cells | BJeLR (HRASV12) viability, CellTiter-Glo ATP luminescence, 48 h; reference of the scale not given here | inhibition, % (test concentration not listed) | 300,000 compounds, 0.17% hits;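 active = replicate mean above 50%; inconclusive = above 50% but judged a plate artefact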;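 note: 50 nL library stock added to about 25 µL; numbers are from one replicate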
Autofluor counter: flagged as autofluorescent in microsphere protease counterscreen; compound autofluorescence counterscreen, microsphere flow cytometry; stronger effect = higher value; fluorescence intensity (concentration not given with the values); 360,000 compounds, 3.1% hits; AID 624483;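 active = at least 3 SD above the mean of all compounds, about 16000 in these data; inconclusive = too few beads counted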;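 note: 100 nL of 1 mM stock went into each well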
Mtb hypoxia rep growth: recorded beside Mtb hypoxia rep, whose call it bears; growth inhibition, %; measured here: M. tuberculosis growth (absorbance);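 0% = vehicle and 100% = reference antibiotic; read after six days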
Starred values were filed as active, the others as inactive; u = inconclusive; x = not tested or not shown. An unsorted share of the library; about 4% have a hit in one of these screens.

item	structure	RN4220 kill	PrP UTR inh	Sa ugtP lethal	Mtb hypoxia rep	Mtb hypoxia rep growth	BJeLR lethal	Autofluor counter
1	Cn1c(CNc2ccc(Cl)cc2)nc2ccccc21	-7.3	-56	7	x	x	0	2912
2	Cc1ccc(NC(=S)NCc2ccc(F)cc2)cc1	0.7	-18	5	10	-7	0	4618
3	Cc1ccc(C=NNC(=O)Cc2cccn2C)o1	5.2	x	0	7	4	x	x
4	O=C1/C(=C/c2cccnc2)CCc2c1[nH]c1ccccc21	4.0	-23	2	1	10	0	3827
5	COc1ccc(-n2cnc3c(N)nc(N)nc32)cc1	5.6	-21	12	4	6	x	3450
6	CNC(=O)c1cccn(Cc2cc(C(F)(F)F)cc(C(F)(F)F)c2)c1=O	-0.3	-5	6	-5	4	9	4583
7	O=C(Nc1ccccc1N1CCOCC1)c1ccccc1NS(=O)(=O)c1ccc(F)c(F)c1	17	-7	2	x	x	10	3417
8	Cc1ccccc1OCC(=O)NCC(C)(C)N1CCOCC1	2.5	-16	4	10	0	-13	5093
9	COc1ccc(S(=O)(=O)N2Cc3ccccc3CC2C(=O)Nc2ccc(O)cc2)cc1OC (stereo not drawn)	2.9	-27	9	5	3	8	5959
10	CC(C)c1ccc(-n2cnn(-c3ncccc3[N+](=O)[O-])c2=O)cc1	1.9	-78	10	6	10	3	5576
11	O=C(Nc1cccc(S(=O)(=O)N2CCOCC2)c1)c1cc2ccccc2o1	-3.5	-11	-12	-13	-8	11	5073
12	COc1cc(C=C2C(=O)NC(=O)NC2=O)ccc1OS(=O)(=O)c1ccccc1[N+](=O)[O-]	4.4	-20	13	-2	1	6	5287
13	Cn1c(=O)n(C)c2cc(NC(=O)c3cc4ccccc4o3)ccc21	14	-20	-7	7	1	-6	12022
14	O=C(O)c1cccc(S(=O)(=O)Nc2ccc(OCc3ccccc3)cc2)c1	-0.2	-14	8	4	6	5	3619
15	CC(C)COc1ccc(/C=C2/Sc3ccccc3C2=O)cc1	-5.7	-27	-7	9	8	9	3374
16	Cc1ccc(C=NNC(=O)CC(=O)NCc2cccnc2)cc1	2.8	x	9	11	-1	x	x
17	O=C(Nc1cccnc1)c1ccc(Cl)c(S(=O)(=O)N2CCc3ccccc32)c1	2.2	-23	17	11	5	4	4681
18	Cc1noc(C)c1COc1ccc(C(=O)OCC(=O)Nc2ccc3ccccc3c2)cc1	-7.8	-11	-8	8	3	2	4521
19	CCOc1ccc(OCCSc2nc3ccccc3c(=O)[nH]2)cc1	-1.3	-11	8	8	7	3	8127
20	Cc1ccc(S(=O)(=O)Cn2nnnc2C(C(C)C)N2CCC(O)CC2)cc1 (stereo not drawn)	1.7	-21	8	12	7	-9	3931
21	Cc1nnc(N/N=C/c2c(Cl)cccc2Cl)n1N	x	-13	x	x	x	-10	6695
22	N#CCCN(C(=O)COc1ccc(F)cc1Br)c1ccccc1F	7.6	-15	6	5	0	-2	4556
23	O=C(COC(=O)C1CC2CCCC(C1)C2=O)NNC(=O)c1ccccc1Br (stereo not drawn)	6.7	-16	2	-1	-5	x	2945
24	O=C(CCC(=O)NC1CC1)Nc1nnc(C2CCCCC2)s1	0.9	-18	7	x	x	13	4190
25	CC1(Cc2ccc3c(c2)OCO3)NC(=O)NC1=O (stereo not drawn)	-0.1	2	-2	1	1	4	8187
26	C/C(=N\N(C)C)c1ccc(OCCOc2ccc([N+](=O)[O-])cc2)cc1	x	-27	x	x	x	-7	3665
27	CCN(c1cccc(C)c1)S(=O)(=O)c1c(C)[nH]c(=O)[nH]c1=O	5.0	-36	7	5	7	5	10264
28	CC12CCC(=O)N1C(C(=O)Nc1nc3c(F)cc(F)cc3s1)CS2 (stereo not drawn)	5.3	-13	-4	1	16	3	5974
29	O=c1c2cc(Cl)ccc2nc(-c2ccc([N+](=O)[O-])cc2)n1O	8.1	-27	-6	-5	-2	0	4862
30	CN(C)CCNC(=O)NC(=O)c1ccc(Cl)cc1	3.9	-20	2	-1	7	-8	2176

Random excerpt: five compounds from above
item	structure	RN4220 kill	PrP UTR inh	Sa ugtP lethal	Mtb hypoxia rep	Mtb hypoxia rep growth	BJeLR lethal	Autofluor counter
27	CCN(c1cccc(C)c1)S(=O)(=O)c1c(C)[nH]c(=O)[nH]c1=O	5.0	-36	7	5	7	5	10264
22	N#CCCN(C(=O)COc1ccc(F)cc1Br)c1ccccc1F	7.6	-15	6	5	0	-2	4556
16	Cc1ccc(C=NNC(=O)CC(=O)NCc2cccnc2)cc1	2.8	x	9	11	-1	x	x
19	CCOc1ccc(OCCSc2nc3ccccc3c(=O)[nH]2)cc1	-1.3	-11	8	8	7	3	8127
20	Cc1ccc(S(=O)(=O)Cn2nnnc2C(C(C)C)N2CCC(O)CC2)cc1 (stereo not drawn)	1.7	-21	8	12	7	-9	3931

Later entries.
item	structure	RN4220 kill	PrP UTR inh	Sa ugtP lethal	Mtb hypoxia rep	Mtb hypoxia rep growth	BJeLR lethal	Autofluor counter
31	CC(=O)c1cccc(NC(=O)N(c2ccccc2)c2ccccc2)c1	1.7	-12	8	11	2	-1	x
32	CCCCCCCC(=O)OC(CN1CCCCC1)CN1CCCC1=O (stereo not drawn)	4.1	-17	6	7	-8	2	12482
33	COc1ccc(NC(=O)CSc2nc(=O)n(CCN(C)C)c3c2CCCC3)cc1	1.7	-1	9	4	6	1	u
34	Clc1ccc(Oc2ncnc3oc(-c4ccccc4)cc23)cc1	0.8	-26	-4	x	x	5	3580
35	Cc1cccc(N(CC(=O)NCc2ccc(F)cc2)C(=O)c2ccco2)c1	3.1	-9	1	0	-3	-20	5474
36	COc1cccc(Nc2ncnc3c2cnn3-c2cccc(C)c2)c1	-1.9	-31	7	-3	7	0	10189
37	Cc1ccc(S(=O)(=O)N2CCN(c3ccc([N+](=O)[O-])c(NCCN4CCOCC4)c3)CC2)cc1	4.0	-37	-2	-14	-10	-5	10581
38	Cc1ccc(-c2nn3c(C)nnc3c3ccccc23)cc1S(=O)(=O)NCCN1CCOCC1	1.6	-12	-2	5	8	-6	22118*
39	O=C(c1ccc(Br)o1)N1CCN(Cc2ccccc2Cl)CC1	6.8	-10	1	8	16	-5	3430
40	COc1ccc(NC(C)=O)cc1S(=O)(=O)Nc1ccc(C(=O)N2CCCC2)cc1	-1.0	-9	-2	5	1	8	5891
41	Cc1ccc(NC(=O)c2ccc(S(=O)(=O)N3CCCC3)cc2)cc1	-0.1	17	-1	x	x	6	3409
42	CCOC(=O)C(C)Sc1nc2ccccc2c(=O)n1CC1CCCCC1 (stereo not drawn)	5.6	-19	18	6	12	-1	19896*
43	CCc1nnc(NC(=O)CCC(=O)NC2CCCc3ccccc32)s1 (stereo not drawn)	-6.9	-7	-3	4	-3	-6	2554
44	COc1cc(CN2CCNC(=O)C2CC(=O)N(Cc2nccn2C)C(C)C)cc(OC)c1 (stereo not drawn)	1.9	-5	1	12	2	3	3325
45	CC(=O)N1CCOc2ccc(S(=O)(=O)NCc3ccccc3Cl)cc21	5.7	-22	6	8	2	8	5708
46	COc1ccc(-c2csc(NC(=S)NC(=O)/C=C/c3ccccc3)n2)cc1Br	0.6	x	-3	0	11	-1	x
47	CCCN(CCC)S(=O)(=O)c1ccc(C(=O)Nc2nnc(CSC)o2)cc1	18	-14	6	x	x	5	2762
48	CCCc1cc(=O)oc2cc(OCC(=O)N3C[C@H]4C[C@@H](C3)c3cccc(=O)n3C4)ccc12	2.9	-6	-5	x	x	-2	5554
49	CCN(c1ccccc1)S(=O)(=O)c1ccc(C(=O)Nc2nnc(-c3ccco3)o2)cc1	54	1	32	3	3	10	2064
50	CCCCOc1ccc(C(=O)Nc2cccc(C)n2)cc1	6.4	-130	8	4	-2	8	15863
51	CC(/C=C1\SC(=S)N(NC(=O)c2ccc(O)cc2)C1=O)=C\c1ccccc1	18	-3	-3	17	0	6	2541
52	CN(C)CCCNC(=O)c1cc(C(=O)c2ccc(F)cc2)c[nH]1	3.3	-13	6	4	7	-4	4463
53	COc1cccc(CC2(CO)CCCN(S(=O)(=O)N(C)C)C2)c1 (stereo not drawn)	2.3	-38	7	10	11	2	4537
54	O=C(Cn1cc(C(=O)C2CC2)c2ccccc21)NC1CCCC1	4.2	-16	-9	3	6	6	4156
55	COc1ccc(-c2[nH]c3ccccc3c2SCCN)cc1	0.6	-29	-7	14	9	-12	5180
56	O=C(COc1ccc(Cl)cc1)NCc1nnc(SCC(=O)Nc2ccc(F)cc2F)o1	3.6	-14	6	12	2	-14	2419
57	COc1ccc(-c2ccc(N)cn2)cn1	7.2	-13	2	4	3	x	4155
58	CCn1c(=O)cc(SCC(=O)N2CCN(c3ccccn3)CC2)c2ccccc21	2.0	x	5	-5	2	12	9432
59	CN1C(=O)N(C)c2cccc3cccc1c23	4.8	1	8	-1	2	6	3534
60	NC(=O)NCC(=O)N1CCN(S(=O)(=O)c2ccc(Cl)s2)CC1	-0.6	-36	-2	6	4	x	9316
61	COc1cccc(C=NNc2nc3ccccc3[nH]2)c1OC	-0.2	x	-8	-9	-8	x	x
62	CC(=O)Nc1c2c(nn1-c1ccccc1C)CS(=O)C2 (stereo not drawn)	2.7	-4	0	5	-5	-7	6057
63	C=CCn1c(SCc2ccc(C(=O)Nc3ccccc3)cc2)nnc1-c1ccccc1	-3.1	-21	-9	-4	7	-2	10686
64	Cc1ccc(C(=O)CC(=O)c2ccc(C)cc2O)cc1	1.7	-10	-6	9	5	15	3937
65	CCN1CCN(Cc2cc(C(C)(C)C)c(O)c(C(C)(C)C)c2)CC1	2.2	x	5	0	-3	-5	x
66	O=C(COC(=O)/C=C/c1nc2ccccc2s1)Nc1ccccc1Oc1ccccc1	2.6	-26	12	4	0	1	2551
67	Cc1ccc(/C=C/c2nnc(-c3cccc(C)c3)o2)cc1	11	-16	-1	-4	6	-1	5982
68	Cc1ccc(/C(O)=C2\C(=O)C(=O)N(Cc3cccnc3)C2c2ccccc2[N+](=O)[O-])cc1 (stereo not drawn)	1.4	-30	3	9	4	6	2447
69	O=C(NCC1CCCO1)c1cccc(N2C(=O)C3C4C=CC(C4)C3C2=O)c1 (stereo not drawn)	0.3	-19	0	x	x	2	4723
70	COCCNC(=O)c1cc2c(=O)[nH]c3ccccc3c2s1	3.1	-31	0	10	4	-1	3961
71	O=C(NN=Cc1cccc(NC(=O)c2ccc(Cl)cc2)c1)c1ccc(O)cc1	0.6	x	11	-1	-6	x	x
72	CCOc1nc(OCC)c2cnn(C)c2n1	6.1	-12	10	7	5	-2	3271
73	O=C(NCCc1ccccc1F)[C@@H]1CSC2c3ccccc3C(=O)N21 (stereo partly drawn)	-3.0	-28	-2	x	x	3	2797
74	Cc1c(C(=O)CN2CCN(c3ccccc3)CC2)c2ccccc2n1C	3.9	-9	11	1	5	4	3893
